Mtb H37Rv – M. tuberculosis H37Rv growth inhibitors, H37Rv strain (AID 1626) | M. tuberculosis H37Rv growth inhibition; higher % means a stronger effect | inhibition, % at 10 µM, or IC50 in µM where a hit was titrated | hit rate 0.95% among 220,000;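 active means confirmed in a dose series; inconclusive means inhibition above 80% but not taken into the dose series; inactive means below 80% or under 30% at every dose of the series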;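 further: bacteria incubated seven days before Alamar blue readout; 0% = bacteria only wells and 100% = bacteria with antibiotic wells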
RecA splice inh – Mtb RecA intein splicing inhibition; P9WHJ3; cell-free RecA intein splicing, fluorescence; inhibition, %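 (about 9 µM by stock and volumes)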; hit rate 0.75% among 290,000; in the data active means inhibition above about 30%; inconclusive means no clear call, values can overlap the other calls;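 further: 0% = vehicle wells and 100% = reference inhibitor control wells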
Target sequence (P9WHJ3 whole entry, looked up, canonical isoform): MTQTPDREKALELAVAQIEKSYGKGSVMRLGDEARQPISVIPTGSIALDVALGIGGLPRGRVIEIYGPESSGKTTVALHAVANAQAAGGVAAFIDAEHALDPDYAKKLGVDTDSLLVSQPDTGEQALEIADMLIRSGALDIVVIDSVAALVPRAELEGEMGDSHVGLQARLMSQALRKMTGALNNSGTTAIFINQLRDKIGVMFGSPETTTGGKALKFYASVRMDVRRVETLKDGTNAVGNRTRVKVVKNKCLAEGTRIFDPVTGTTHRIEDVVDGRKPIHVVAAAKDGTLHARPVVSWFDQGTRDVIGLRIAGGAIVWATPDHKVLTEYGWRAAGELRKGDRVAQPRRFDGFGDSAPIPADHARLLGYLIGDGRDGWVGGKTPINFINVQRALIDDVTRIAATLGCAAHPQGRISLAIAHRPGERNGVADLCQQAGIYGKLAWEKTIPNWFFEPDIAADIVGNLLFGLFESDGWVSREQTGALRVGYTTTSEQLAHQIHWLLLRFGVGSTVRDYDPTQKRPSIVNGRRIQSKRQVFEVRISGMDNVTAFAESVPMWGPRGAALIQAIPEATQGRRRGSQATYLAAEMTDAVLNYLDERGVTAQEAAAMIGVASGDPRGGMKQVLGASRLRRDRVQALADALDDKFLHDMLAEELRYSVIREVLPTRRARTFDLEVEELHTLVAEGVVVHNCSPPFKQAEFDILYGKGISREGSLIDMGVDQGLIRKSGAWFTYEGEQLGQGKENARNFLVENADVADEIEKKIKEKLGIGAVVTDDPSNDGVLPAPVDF
Arbovirus anti – blocks arbovirus infection | hit rate 0.37% among 200,000 | AID 1251 | arbovirus infection cell-based antiviral screen | inhibition, % at 10 µM;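 active means inhibition from about 30%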;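 further: bluetongue infection of BSR cells; cell survival read as ATP light after 72 h; 0% = infected wells without compound and 100% = uninfected wells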
YopH PTP inh – inhibitors of Yersinia enterocolitica YopH tyrosine phosphatase; fluorescence Ex485/Em525; inhibition, %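 (about 10 µM by stock and volumes)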; hit rate 0.16% among 140,000; AID 898;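 active means inhibition of 50% or more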;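 further: controls were vehicle for no effect and minimum signal wells for full effect; inactives centre near -20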
Mtb bLac sens – beta-lactam sensitization of Mtb H37Rv | M. tuberculosis H37Rv growth with meropenem, percent inhibition; hits of this screen are not shown here | inhibition, % at 25 µM | hit rate 0.27% among 330,000 | AID 434955;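 active means about 74% or more and at least 40 points above the plate without the antibiotic, then above 30% in a dose series; inconclusive means first-round hits that could not be retested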;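 further: growth measured after seven days incubation then overnight dye step; 0% = bacteria only wells and 100% = bacteria with antibiotic; twin plates without the antibiotic show which effects depend on it; some results filed as inactive read as strong as hits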
Arbovirus anti repeat – second read-out of Arbovirus anti, no call of its own (marks repeat the call); inhibition, %; measured here: 10K subset replicate screen; many hits read low in the repeat;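 first of two repeat runs on a subset; 0% = infected and 100% = uninfected wells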
Starred values were filed as active, the others as inactive; ? = inconclusive; / = no result given; & = joins results of further samples. These rows are one share of the data; count on the stated rates, not on these rows.

SMILES | Mtb H37Rv | RecA splice inh | Arbovirus anti | YopH PTP inh | Mtb bLac sens | others
Cc1ccc(C(=O)NN2C(=O)C3C4c5ccccc5C(c5ccccc54)C3C2=O)cc1 (stereo not given) | 1% | -0.8 | -3 | -11 | 1
CN1C(=O)/C(=C/c2ccccc2OCc2ccccc2F)NC1=S | / | -3.2 | -12 | -2 | 1
CC(C)N1C(=O)CN(C2CCCCCC2)C(=O)C1c1ccccc1F (stereo not given) | -6% | 0.3 | 9 | -41 | -3
COc1ccc(C)cc1N(C(=O)c1ccco1)C(C(=O)NC1CCCC1)c1cc(OC)c(OC)c(OC)c1 (stereo not given) | / | 12 | / | / | -2
CON(C)c1nc(OCC#N)nc(N(C)C)n1 | -5% | -2.4 | -4 | -33 | -5
CCN1CCN(C(=O)CCN2C(=O)c3ccccc3S2(=O)=O)CC1 | / | 3.1 | / | / | -9
O=C(O)C1=C[C@H](C2CC2)C[C@H](OCc2ccc(CO)cc2)O1 | -6% | 3.2 | / | / | -3
COc1cc(NC(=O)C2CCCN2S(=O)(=O)c2ccc3c(c2)CC(C)N3C(C)=O)cc(OC)c1 (stereo not given) | / | 1.0 | / | / | 4
O=c1c2ccccc2ncn1C1CCCCC1 | 7% | 1.5 | 10 | -41 | 3
Cc1cccc(N(C)S(=O)(=O)c2cc3c(cc2C)n(C)c(=O)c(=O)n3C)c1 | / | 0.7 | / | / | ?
Cc1cc(-c2n[nH]c(=S)n2-c2ccccc2C)cs1 | 4% | 1.5 | 8 | -26 | -4
COc1ccc([N+](=O)[O-])cc1/C=N/NC(=O)/C(=C\c1cccs1)NC(=O)c1ccccc1 | -12% | -0.2 | -4 | 2 | -3
O=C(COc1ccc(F)cc1)c1ccc2c(c1)CCCC2 | 15% | 4.5 | / | -15 | 92
CCN(CC(=O)NC1CCCC1)S(=O)(=O)c1ccc(F)cc1 | / | -0.4 | / | / | -4
CCS(=O)(=O)N1Cc2ccccc2CC1C(=O)Nc1ccc(OC)cc1OC (stereo not given) | / | -1.5 | / | / | -2
Cc1ccc(C(=O)O/N=C/c2ccc3c(c2)OCO3)cc1 | 1% | -0.6 | 7 | -2 | -2
O=C(Nc1c2c(nn1-c1ccccc1)CS(=O)C2)c1ccco1 (stereo not given) | / | 3.4 | / | / | 2
COc1ccc(NC(=S)NCCCN2CCN(C3CCCCC3)CC2)cc1 | 0% | -0.5 | 5 | -14 | 2
CC(=O)c1ccc(NC(=O)NNS(=O)(=O)c2ccc([N+](=O)[O-])cc2)cc1 | / | 0.9 | / | / | -5
CCN(CC)c1ccc(C2C(C(C)=O)C(=O)CC(C)(O)C2C(C)=O)cc1 (stereo not given) | -8% | -5.9 | / | -9 | -7
COc1cccc(NC(=O)c2cc(-c3ccco3)nc3ccccc23)c1 | / | 4.9 | / | / | 5
O=S(=O)(c1ccc2c(c1)C(=NO)c1cc(S(=O)(=O)N3CCCCC3)ccc1-2)N1CCCCC1 | -6% | 1.0 | -41 | -34 | ?
CNC(=O)c1c(C)nc(SCC(=O)NCc2ccc(OC)cc2)c(C#N)c1-c1ccco1 | -8% | -0.3 | 4 | -24 | -4
O=S(=O)(Nc1ncnc2sc3c(c12)CCC3)c1cc(F)ccc1F | -9% | -0.2 | / | / | -4
Cc1cc([N+](=O)[O-])nn1CCCC(=O)Nc1sc2c(c1C(N)=O)CCCC2 | -7% | -1.7 | -2 | -25 | 7
Next structures
SMILES | Mtb H37Rv | RecA splice inh | Arbovirus anti | YopH PTP inh | Mtb bLac sens | others
CN(c1ccc(C(=O)N2CCCCC2)cc1)S(C)(=O)=O | -5% | -0.4 | 0 | -2 | 0
O=C(Nc1ccc(F)cc1)Nc1nnc(-c2ccccc2)o1 | -7% | 1.7 | 2 | / | 92
C=CCn1c(SCCOc2ccccc2)nnc1C(C)NC(=O)c1ccccc1 (stereo not given) | -3% | 1.1 | 2 | -12 | -8
CCOc1ccc2nc(/N=C/c3nc(-c4ccccc4)oc3O)sc2c1 | 6.8µM* | -2.4 | 5 | -157 | 97
O=C(NCc1ccc(F)cc1)c1ccc(CS(=O)(=O)c2ccc(Br)cc2)o1 | -4% | -1.1 | / | / | -7
N#CCC(=O)NNC(=S)Nc1ccccc1C(F)(F)F | 3% | / | -6 | / | 3
CC1CCN(S(=O)(=O)c2ccc3c(c2)CCN3C(=O)CCC(=O)O)CC1 | -4% | 0.3 | 3 | -41 | -13
CCOc1ccc(NS(=O)(=O)c2cc(NC(=O)CCC(=O)c3cccs3)ccc2Cl)cc1 | -4% | 5.8 | -9 | / | 0
CC(C)CC(=O)NC(=S)Nc1ccc(S(=O)(=O)N2CCN(C)CC2)cc1 | -7% | 1.4 | 10 | -19 | 3
CCN(CC)C(=O)CSc1nnc(-c2ccccc2)n1-c1ccccc1 | -6% | 0.6 | 12 | -26 | -6
CC1CCCN(CCCNC(=O)c2cc3c(s2)-c2ccccc2OC3)C1 (stereo not given) | / | -25 | / | / | 0
COc1ccccc1CNC(=O)C(=O)NCC1OCCN1S(=O)(=O)c1cccs1 (stereo not given) | 1% | -2.0 | / | / | -2
O=C(NC(=S)NC1CCSC1=O)c1ccccc1Cl (stereo not given) | -3% | -0.4 | -3 | -47 | -2
Cc1ccc(C(CC(=O)NCc2ccco2)c2ccc(OC(C)C)cc2)cc1 (stereo not given) | 4% | 4.5 | / | -27 | -1
C=CCSc1nc(Oc2ccccc2)c2sccc2n1 | 11% | 15 | 10 | -47 | 17
Cc1cccc(N(CC(=O)Nc2ccc(F)cc2)S(C)(=O)=O)c1 | -4% | -0.1 | 2 | -3 | 3
O=C(Nc1ncc(S(=O)(=O)c2ccc([N+](=O)[O-])cc2)s1)c1ccc2ccccc2c1 | 3% | 0.3 | -5 | -30 | -1
C=CCNC(=O)c1ccccc1NS(=O)(=O)c1ccccc1 | -1% | 0.0 | 3 | -60 | 1
OC(COc1ccc(OCC(O)CN2CCCCCC2)cc1)CN1CCCCCC1 (stereo not given) | -5% | -0.2 | 17 | -20 | 1
O=C(N/C=N/OCc1ccc(Cl)cc1Cl)NOCc1ncc(C(F)(F)F)cc1Cl | 6% | 4.1 | -41 | 2 | 41
O=C(N/N=C/c1ccc(F)cc1)c1ccc(Br)cc1 | -4% | -1.6 | 5 | -40 | 22
CCOC(=O)/C=c1\s/c(=C\c2ccccc2C)c(=O)n1CC(=O)NCc1ccc2c(c1)OCO2 | 3% | 0.1 | -11 | -19 | 58
COc1ccc(CC(=O)Nc2cccnc2)cc1 | / | 1.1 | / | / | 3
Cc1nn(C)c(C)c1S(=O)(=O)N(CC(=O)N1CCc2ccccc2C1)c1ccc(C(C)C)cc1 | 5% | 1.3 | -20 | -52 | 12
COc1ccc(OC)c(S(=O)(=O)Nc2cccc(C(C)=O)c2)c1 | -2% | -0.7 | 3 | -5 | 6

Next section; it opens with the two that closed the last part.
SMILES | Mtb H37Rv | RecA splice inh | Arbovirus anti | YopH PTP inh | Mtb bLac sens | others
Cc1nn(C)c(C)c1S(=O)(=O)N(CC(=O)N1CCc2ccccc2C1)c1ccc(C(C)C)cc1 | 5% | 1.3 | -20 | -52 | 12
COc1ccc(OC)c(S(=O)(=O)Nc2cccc(C(C)=O)c2)c1 | -2% | -0.7 | 3 | -5 | 6
O=C(Nc1nnc(C2=COCCO2)o1)c1ccc(Cc2ccccc2)cc1 | 4.5µM* | -1.0 | -12 | / | 95
CCn1c(CC(=O)Nc2ccccc2)nnc1SCc1nc2ccccc2c(=O)[nH]1 | -3% | 1.6 | / | / | 0
CCOc1ccccc1NC(=O)CCc1nnc2ccc(N3CCC(C)CC3)nn12 | / | -0.4 | / | / | -2
COc1ccc(C(CNS(=O)(=O)c2ccccc2)N2CCN(C)CC2)cc1 (stereo not given) | / | -0.2 | / | / | -3
Cc1ccc(S(=O)(=O)CCC(=O)Nc2ccccc2C)cc1 | / | -1.2 | / | / | 6
CCOC(=O)c1c(-c2ccc(F)cc2)cn2ccccc12 | 7% | -1.4 | 6 | -39 | 1
CCOc1ccc(-n2c(-c3ccco3)n[nH]c2=S)cc1 | / | 3.6 | 7 | -49 | -2
FCCCOc1ccc(/C=N/OCc2ccc(Cl)cc2)cc1 | 12% | 2.5 | 7 | -30 | 4
O=C(NCc1ccc2c(c1)OCO2)C1CCCN(S(=O)(=O)c2cccc3cccnc23)C1 (stereo not given) | -5% | 0.6 | -20 | -26 | -9 | Arbovirus anti repeat=-17
Cc1c(C(=O)Nc2ccc(Nc3ccccc3)cc2)cccc1[N+](=O)[O-] | / | 6.3 | / | / | -4
O=C(CN1C(=O)NC(Cc2c[nH]c3ccccc23)C1=O)Nc1cccc(S(=O)(=O)N2CCCCCC2)c1 (stereo not given) | 6% | -2.2 | -6 | -29 | -1
COCCNCC(=O)NCC12CC3CC(CC(C3)C1)C2 | 15% | 6.8 | 4 | 4 | -3
Cc1ccccc1-n1nnc2c(=O)oc3ccccc3c21 | 4.5µM* | 0.5 | -10 | -7 | 100
CC(C)(C)CC(C)(C)NC(=S)N1CCN(Cc2ccc3c(c2)OCO3)CC1 | 5% | 1.2 | -20 | / | -4
COc1cc2c(cc1NC(=O)C(C)Sc1nc3ccccc3n1C)oc1ccccc12 (stereo not given) | -1% | -0.6 | 4 | -24 | -8
Cc1ccc(N(CC(=O)NCc2ccc(F)cc2)C(=O)c2csnn2)cc1C | 9% | -1.9 | 11 | / | -1
COc1cc(/C=C2/CCc3ccccc3C2=O)cc(OC)c1OC | -6% | 3.8 | -30 | -18 | 47
O=S1(=O)N[C@@H](CC2=CCCCC2)C2CCCCC2O1 (stereo not given in full) | / | 0.8 | / | / | -5
O=C(c1cc(-c2ccco2)nn1-c1cccc(Cl)c1)N1CCCCC1 | 17% | 15 | -3 | 6 | -1
CNC(=O)c1ccc(Oc2ccc(C(=O)NC)cc2)cc1 | -8% | 0.7 | -2 | -50 | -1
O=C(C1CC(=O)N(C2CCCC2)C1)N1CCN(c2ccccc2)CC1 (stereo not given) | / | 0.6 | / | / | -11
CCCCCNCc1ccc(Cl)cc1 | -1% | -2.0 | 2 | / | -9
CC1CC(C)CN(S(=O)(=O)N2CCCC(C(=O)NCCCN3CCCCC3C)C2)C1 (stereo not given) | / | -1.4 | / | / | 1
O=C(O)CSc1cc(C(F)(F)F)nc(-c2ccccn2)n1 | -6% | / | 7 | -39 | -6
Cc1ccc(S(=O)(=O)N(CC(=O)NCc2ccco2)Cc2ccc(F)cc2)cc1 | -2% | 6.3 | 0 | 0 | 0

Fetched by structure from the list above:
SMILES | Mtb H37Rv | RecA splice inh | Arbovirus anti | YopH PTP inh | Mtb bLac sens | others
O=C(CN1C(=O)NC(Cc2c[nH]c3ccccc23)C1=O)Nc1cccc(S(=O)(=O)N2CCCCCC2)c1 (stereo not given) | 6% | -2.2 | -6 | -29 | -1
CCOc1ccc(-n2c(-c3ccco3)n[nH]c2=S)cc1 | / | 3.6 | 7 | -49 | -2
FCCCOc1ccc(/C=N/OCc2ccc(Cl)cc2)cc1 | 12% | 2.5 | 7 | -30 | 4
COc1cc(/C=C2/CCc3ccccc3C2=O)cc(OC)c1OC | -6% | 3.8 | -30 | -18 | 47
CCOC(=O)c1c(-c2ccc(F)cc2)cn2ccccc12 | 7% | -1.4 | 6 | -39 | 1

Going on with the list:
SMILES | Mtb H37Rv | RecA splice inh | Arbovirus anti | YopH PTP inh | Mtb bLac sens | others
CC(C)CC(=O)N/C(N)=N/c1nc2ccccc2s1 | 23% | 7.2 | 13 | -27 | 4
CCOc1ccc(Nc2nc3ccccc3n3cnnc23)cc1 | 5% | 3.0 | / | / | -4
CNC(=S)N1CCC(Cc2ccccc2)CC1 | / | -1.0 | / | / | 3
CCN(Cc1nc2ccccc2c(=O)[nH]1)Cc1nc2ccsc2c(=O)[nH]1 | 16µM* | -9.2 | 20 | / | 82
S=C1N(c2ccccc2)CN(C2CCCCC2)CN1c1ccccc1 | 17% | -2.2 | / | / | 1
CC(=O)N1c2ccc(S(=O)(=O)N3CCCC3)cc2CC1C(=O)NCc1ccc(N(C)C)cc1 (stereo not given) | / | -0.4 | / | / | 3
CCCNC(=O)/C=C/c1ccc(C(C)C)cc1 | -5% | -0.4 | -7 | -21 | 1
Nc1nc(NCc2ccco2)nc(NC2CCCCC2)c1[N+](=O)[O-] | -8% | 0.0 | / | / | -3
CC(C)CNC(=O)C1Nc2ccc(OC(F)(F)F)cc2C2C=CCC12 (stereo not given) | 7% | 1.5 | / | / | -11
c1ccc(-c2n[nH]c(-c3ccccn3)n2)nc1 | 5%&-4% | 5.5 | -8 | 4 | 18&-2
CN(C)c1ccc(/C=C/C(=O)c2cc(Cl)ccc2O)cc1 | -5% | -2.2 | / | / | -2
CC(C)CN1CCN(Cc2cccc3c2OCO3)CC1CCO (stereo not given) | 2% | -4.4 | 4 | / | -6
CCCOC(=O)c1cc2ccccc2oc1=O | -5% | -2.5 | 2 | -15 | 8

Source: PubChem BioAssay
